Screening data: PubChem BioAssay, Southern Research Institute
Mtb growth: Confirmatory growth inhibition assay against Mycobacterium tuberculosis H37Rv, potency (AID 1949) | most inactive calls were filed without a number and no value below 0 was filed | one-dose inhibition, % at 10 µg/mL; IC50 in µg/mL for titrated hits | hit rate 1.6% among 100,000;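 active means confirmed in a dose series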;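 further: bacteria grown 7 days with compound before Alamar blue readout; 0% = untreated bacteria and 100% = reference antibiotic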
Numbers without * were called inactive.

Preview, two compounds:
Screening CCOc1ccc(C(C)NC(=O)c2ccc(OC)cc2)cc1 (stereo not drawn) returned Mtb growth inactive.
For O=C(CC1NCCNC1=O)Nc1ccc2c(c1)OCCO2 (stereo not drawn) the results were Mtb growth inactive.

Main list, from the start:
Screening CCOc1ccc(C(C)NC(=O)c2ccc(OC)cc2)cc1 (stereo not drawn) returned Mtb growth inactive.
For O=C(CC1NCCNC1=O)Nc1ccc2c(c1)OCCO2 (stereo not drawn) the results were Mtb growth inactive.
COCc1nnc(NC(=O)CS(=O)(=O)Cc2ccccc2)s1 was read as Mtb growth inactive.
Screening O=C(CCCN1C(=O)c2ccccc2C1=O)Nc1nnc(SCc2ccccc2)s1 returned Mtb growth inactive.
`CSc1ccccc1NC(=O)c1ccccc1N(C)S(C)(=O)=O` gave Mtb growth inactive.
Screening CC1CC(C)CN(C(=O)CCc2ccccc2)C1 (stereo not drawn) returned Mtb growth inactive.
Screening Cc1ccc(-c2nn(-c3cc(N4CCCC4)ccc3[N+](=O)[O-])c(=O)c3ccccc23)cc1 returned Mtb growth 6%.
For Cc1cc(C(=O)Nc2sccc2C(=O)NC(N)=O)cs1 the results were Mtb growth 22%.
For CCCc1cc(=O)[nH]c(SCC(=O)Nc2ccccc2F)n1 the results were Mtb growth inactive.
N#CCCN(CCC#N)C(=O)C(Sc1ccccc1)c1ccccc1 (stereo not drawn) was read as Mtb growth inactive.
CCCOc1ccc(N2C(=O)CC(NCCc3ccccc3)C2=O)cc1 (stereo not drawn) was read as Mtb growth inactive.
Screening O=C(Nc1ccc(S(=O)(=O)Nc2ccccn2)cc1)C1(c2ccccc2)CCOCC1 returned Mtb growth inactive.
Screening COC(=O)c1ccccc1NC(=O)c1ccc(NS(=O)(=O)c2cccc3cccnc23)cc1 returned Mtb growth 3%.
COC(=O)C1=CN(Cc2ccc(OC)cc2)C=C(C(=O)OC)C1c1ccc(OC)cc1OC was read as Mtb growth inactive.
For Cc1ccc2nc(Nc3nc(C)c(Cc4ccccc4)c(=O)[nH]3)nc(C)c2c1 the results were Mtb growth 0%.
For CCc1cccc(C)c1NC(=O)CN(c1ccc(I)cc1)S(C)(=O)=O the results were Mtb growth inactive.
`O=C(NCc1ccco1)c1ccc(Cl)c(S(=O)(=O)N2CCOCC2)c1` gave Mtb growth inactive.
Screening CCN(CC)C(=O)c1sc(NC(=S)Nc2nc3c(s2)CC(C)CC3)c(C(=O)OC)c1C (stereo not drawn) returned Mtb growth 4%.
For CCOC(=O)C1CCN(C(=O)CN(c2cccc(Cl)c2)S(=O)(=O)c2ccc(OC)cc2)CC1 the results were Mtb growth inactive.
`Clc1ccccc1CSc1nnc(Cn2cnc3ccccc32)n1-c1ccccc1` gave Mtb growth 2%.
`Cc1sc2ncnc(NC(Cc3c[nH]c4ccccc34)C(=O)O)c2c1C` (stereo not drawn) gave Mtb growth 5%.
For CCOc1cccc(C(=O)Nc2ccc(-c3nc4cc(CC)ccc4o3)cc2)c1 the results were Mtb growth inactive.
For Cc1ccc(S(=O)(=O)N2C(=O)CCC2C(=O)Nc2cccc3c2CCCC3)cc1 (stereo not drawn) the results were Mtb growth inactive.
For Cc1ccccc1NC(=O)C(C)NC(=O)C12CC3CC(CC(C3)C1)C2 (stereo not drawn) the results were Mtb growth 2%.
For Cc1cc(=O)oc2cc(OCC(=O)c3ccc(Oc4ccc([N+](=O)[O-])cc4)cc3)ccc12 the results were Mtb growth inactive.
Screening CN(C(=O)COc1ccccc1)C1(C)CCS(=O)(=O)C1 (stereo not drawn) returned Mtb growth inactive.
Screening CCC(=O)Nc1ccc(Cl)c(NC(=O)c2ccc(CC)cc2)c1 returned Mtb growth inactive.
For O=C(CN1C(=O)C2C3C=CC(C4CC34)C2C1=O)Oc1ccc(-c2ccccc2)cc1 (stereo not drawn) the results were Mtb growth 31%.
O=S(=O)(/N=C(/Nc1ccc(S(=O)(=O)Nc2nccs2)cc1)c1ccccc1)c1ccccc1 was read as Mtb growth 1%.
Screening CCOC(=O)Cc1csc(NC(=O)CSc2nnc(CSc3nc(C)cc(C)n3)o2)n1 returned Mtb growth inactive.
Screening Oc1ccc(O)c(Sc2nnnn2-c2ccccc2)c1 returned Mtb growth inactive.
For CCN(CC)CC#CCC(c1ccccc1)c1ccc(OC)cc1 (stereo not drawn) the results were Mtb growth inactive.
`Cc1nnc(NC(=O)CN2C(=O)c3cccc([N+](=O)[O-])c3C2=O)s1` gave Mtb growth inactive.
CCOC(=O)c1c(NC(=O)C(C)Oc2ccccc2)sc2c1CCC2 (stereo not drawn) was read as Mtb growth inactive.
`C=CCn1c(CNC(=O)c2ccc(OC)c(OC)c2)nnc1SCC(=O)Nc1c(C)cccc1CC` gave Mtb growth 3%.
`Cc1ccc(S(=O)(=O)N2CCN(CCCOc3cc(C)ccc3C)CC2)cc1` gave Mtb growth 17%.

Pulled by structure from above, six records:
Screening CCOC(=O)Cc1csc(NC(=O)CSc2nnc(CSc3nc(C)cc(C)n3)o2)n1 returned Mtb growth inactive.
Screening CN(C(=O)COc1ccccc1)C1(C)CCS(=O)(=O)C1 (stereo not drawn) returned Mtb growth inactive.
CCOC(=O)c1c(NC(=O)C(C)Oc2ccccc2)sc2c1CCC2 (stereo not drawn) was read as Mtb growth inactive.
O=S(=O)(/N=C(/Nc1ccc(S(=O)(=O)Nc2nccs2)cc1)c1ccccc1)c1ccccc1 was read as Mtb growth 1%.
`Cc1nnc(NC(=O)CN2C(=O)c3cccc([N+](=O)[O-])c3C2=O)s1` gave Mtb growth inactive.
`Cc1ccc(S(=O)(=O)N2CCN(CCCOc3cc(C)ccc3C)CC2)cc1` gave Mtb growth 17%.

Carrying on.
For CS(=O)(=O)N(Cc1ccccc1)c1ccc(C(=O)NCCSc2ccccn2)cc1 the results were Mtb growth inactive.
`Cc1cc2c(=O)n(-c3cccc(Cl)c3)c(=O)[nH]c2s1` gave Mtb growth 2%.
`O=S(=O)(NCc1ccc2c(c1)OCO2)c1ccc(Cl)c(Cl)c1Cl` gave Mtb growth inactive.
Screening COc1ccc(N(CC(=O)NCc2ccccn2)S(=O)(=O)c2ccc(F)cc2)cc1 returned Mtb growth inactive.
Cn1nccc1C(=O)n1cc([N+](=O)[O-])cn1 was read as Mtb growth inactive.
For Cc1cccc(C(C)C)c1NC(=O)c1ccccc1N(Cc1ccccc1)S(C)(=O)=O the results were Mtb growth inactive.
Screening COc1ccc(NC(=O)CC2C(=O)N(C)C(=S)N2CCc2ccccc2)cc1 (stereo not drawn) returned Mtb growth inactive.
`CCOc1ccccc1C(=O)NCC1CCCO1` (stereo not drawn) gave Mtb growth inactive.
Screening Cc1cc(C(=O)Nc2ccccn2)c2cc(F)ccc2n1 returned Mtb growth inactive.
O=C(CN(c1ccccc1F)S(=O)(=O)c1ccccc1)Nc1ccccc1C(=O)N1CCCC1 was read as Mtb growth inactive.
CCN(CC)C(=O)C(=O)Nc1ccccc1C was read as Mtb growth inactive.
`CCCC(C)n1[nH]c(=O)c2c1NC(=O)CSC2c1ccc(Cl)cc1Cl` (stereo not drawn) gave Mtb growth 1%.
`CC(C)C(NC(=O)c1ccccc1)C(=O)O` (stereo not drawn) gave Mtb growth inactive.
Screening O=c1ccnc2c1ccc1[nH]snc12 returned Mtb growth inactive.
O=C(C1CC(c2ccccc2O)=NO1)N1CCCC1 (stereo not drawn) was read as Mtb growth inactive.
For O=C(NCCc1cccc(Cl)c1)c1ccncc1 the results were Mtb growth inactive.
`CC(C)(C)NC(=O)C(=O)N1CCCCC1` gave Mtb growth inactive.
Screening Cc1ccnc(NC(=O)c2ccccc2NC(=O)c2ccc(Cl)cc2Cl)c1 returned Mtb growth inactive.
For CC(C)c1ccc(NC(=S)NNC(=O)c2cccs2)cc1 the results were Mtb growth 13%.
O=C(NCCN1CCc2ccccc2C1)Nc1ccc(F)cc1 was read as Mtb growth inactive.
O=C(Cc1ccccc1)N1CCCCCC1 was read as Mtb growth inactive.
COc1ccc(S(=O)(=O)Nc2ccccc2OC)cc1I was read as Mtb growth 1%.
CCOC(=O)c1ccc(NC(=O)CSc2nccc(=O)[nH]2)cc1 was read as Mtb growth 12%.
`Cc1ccc(C(=O)O/N=C(\N)c2ccncc2)cc1Cl` gave Mtb growth 1%.
For Cn1cnc2cc(NCc3cccs3)ccc21 the results were Mtb growth inactive.
`O=C1NC(c2ccccc2)(c2ccccc2)C(=O)N1CCSc1ccccc1` gave Mtb growth inactive.
`CC(NC(=O)c1ccccc1F)c1ccc2c(c1)OCCO2` (stereo not drawn) gave Mtb growth inactive.
CCOc1cc(CO)cc(Br)c1OCc1ccccc1C#N was read as Mtb growth inactive.
`COc1ccc(NC(=O)c2cccc(C(=O)Nc3ccc(OC)cc3)c2)cc1` gave Mtb growth inactive.
COC(=O)c1ccc(NC(=S)NCCc2ccc(OC)cc2)cc1 was read as Mtb growth 2%.
For CN(Cc1ccccc1)C(=O)CN(C)S(=O)(=O)c1ccc(Cl)cc1 the results were Mtb growth inactive.
For COc1cc2c(cc1NC(=O)c1csc(C)c1)oc1ccccc12 the results were Mtb growth inactive.
`CN(CC(=O)N1CCN(c2ccccc2F)CC1)S(=O)(=O)c1cc(Cl)ccc1Cl` gave Mtb growth 4%.
For COc1ccc(C(=O)NC(=S)Nc2ccccc2[N+](=O)[O-])cc1OC the results were Mtb growth 0%.
`Cc1c(NC(=O)C2(c3ccccc3)CCCC2)c(=O)n(-c2ccccc2)n1C` gave Mtb growth inactive.
COc1ccc(/C=C(\NC(=O)c2ccc([N+](=O)[O-])cc2)C(=O)NCCN2CCOCC2)cc1 was read as Mtb growth inactive.

Three structures from above, arranged by formula weight, rising.
`Cc1cc2c(=O)n(-c3cccc(Cl)c3)c(=O)[nH]c2s1` gave Mtb growth 2%.
`CC(NC(=O)c1ccccc1F)c1ccc2c(c1)OCCO2` (stereo not drawn) gave Mtb growth inactive.
Screening COc1ccc(NC(=O)CC2C(=O)N(C)C(=S)N2CCc2ccccc2)cc1 (stereo not drawn) returned Mtb growth inactive.

An excerpt taken from the entries so far, as a working copy:
For Cn1cnc2cc(NCc3cccs3)ccc21 the results were Mtb growth inactive.
`O=C1NC(c2ccccc2)(c2ccccc2)C(=O)N1CCSc1ccccc1` gave Mtb growth inactive.
`CC(NC(=O)c1ccccc1F)c1ccc2c(c1)OCCO2` (stereo not drawn) gave Mtb growth inactive.
CCOc1cc(CO)cc(Br)c1OCc1ccccc1C#N was read as Mtb growth inactive.
`COc1ccc(NC(=O)c2cccc(C(=O)Nc3ccc(OC)cc3)c2)cc1` gave Mtb growth inactive.
COC(=O)c1ccc(NC(=S)NCCc2ccc(OC)cc2)cc1 was read as Mtb growth 2%.

Additional compounds
Cc1ccc(N(CC(=O)N2CCOCC2)S(=O)(=O)c2ccccc2)cc1 was read as Mtb growth inactive.
Screening Cc1ccc(N2CCN(C(=O)N3CCCC3)CC2)cc1Cl returned Mtb growth inactive.
COc1cc(C(=O)NC2CCCCC2NC(=O)c2cc(OC)c(OC)c(OC)c2)cc(OC)c1OC (stereo not drawn) was read as Mtb growth inactive.
For CCOC(=O)c1ccc(NC(=S)Nc2cc(C)[nH]n2)cc1 the results were Mtb growth inactive.
Screening CC(=O)Nc1ccc(S(=O)(=O)N2CCN(c3ccc([N+](=O)[O-])cc3)CC2C)cc1 (stereo not drawn) returned Mtb growth inactive.
`C=CCN(CC=C)C(=O)c1ccccc1SCC` gave Mtb growth inactive.
For CC(O)CNCCOc1ccc2ccccc2c1Cl (stereo not drawn) the results were Mtb growth inactive.
Screening COc1ccccc1NC(=S)NCc1ccccc1Cl returned Mtb growth inactive.
Screening O=C(NC1(C(F)(F)F)NC(=O)N(Cc2ccco2)C1=O)C1CCCCC1 (stereo not drawn) returned Mtb growth inactive.
For N#CC1=C(N)Oc2n[nH]c(-c3ccccc3Cl)c2C1c1cc(F)ccc1F (stereo not drawn) the results were Mtb growth inactive.
Screening O=C(O)c1cn(-c2ccccc2)nc1-c1ccncc1 returned Mtb growth inactive.
For CCOc1ccc(NC(=O)C(C)Sc2ccccn2)cc1 (stereo not drawn) the results were Mtb growth 44%.
O=C(Oc1cc(=O)oc2ccccc12)c1ccc(F)cc1 was read as Mtb growth 1%.
`CCC(=O)c1ccc(OC(=O)c2cc3cc(Br)ccc3oc2=O)cc1` gave Mtb growth 8%.
For COCCNC(=S)Nc1ccccc1Cc1ccccc1 the results were Mtb growth inactive.
Screening NC(=O)c1c(NC(=O)c2ccncc2)sc2c1CCCCCC2 returned Mtb growth 6%.
CCOC(=O)C(C)Oc1ccc2c(=O)c(-c3ccc(OC)c(OC)c3)c(C(F)(F)F)oc2c1 (stereo not drawn) was read as Mtb growth 2%.
`Cc1ccc(-c2cc3nc(C(F)(F)F)cc(C(F)(F)F)n3n2)cc1` gave Mtb growth 0%.
For CCOC(=O)C1CCCN(C2CC(=O)N(c3ccc(Cl)cc3)C2=O)C1 (stereo not drawn) the results were Mtb growth inactive.
`CCn1c(SCC(=O)Nc2cc(Cl)ccc2C)nnc1-c1cccc(C)c1` gave Mtb growth inactive.
Screening CCCc1ccc(OCCNC(=O)c2ccccc2C(F)(F)F)cc1 returned Mtb growth 4%.
For O=S(=O)(Nc1ccc(-c2cn3cccnc3n2)cc1)c1cc(Cl)ccc1Cl the results were Mtb growth inactive.
For COc1cc(OC)cc(C(=O)N2CCC(C(=O)Nc3ccc4c(c3)OCO4)CC2)c1 the results were Mtb growth inactive.
`Cc1cc(=O)oc2cc(NC(=S)N3CCN(C(=O)c4ccco4)CC3)ccc12` gave Mtb growth inactive.
`COc1cc(CNc2ncn[nH]2)ccc1OCC(=O)NC1CCCCC1` gave Mtb growth 1%.
Screening CCOc1cc(C=O)ccc1OCc1ccccc1 returned Mtb growth inactive.
Screening O=S(=O)(Nc1ccc(Cl)cc1)c1ccc(NS(=O)(=O)c2cc(Cl)ccc2Cl)cc1 returned Mtb growth inactive.
Cc1nn(Cc2ccc(F)cc2)c(C)c1NC(=O)c1cnn2cccnc12 was read as Mtb growth 3%.
For O=C(CN1C(=O)c2ccccc2C1=O)Nc1ccccc1C(=O)NC1CCCCCC1 the results were Mtb growth inactive.

Some of the compounds tested, so the mix of outcomes need not match the whole.
